Screens deposited in PubChem by several laboratories.
BJeLR lethal – kills HRASV12-expressing BJeLR cells; BJeLR (HRASV12) viability, CellTiter-Glo ATP luminescence, 48 h; reference of the scale not given here; inhibition, % (no concentration beside the values); 300,000 compounds, 0.17% hits; AID 1554;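 active means replicate mean above 50%; inconclusive means above 50% but judged a plate artefact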;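 further: 50 nL library stock added to about 25 µL; numbers are from one replicate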
Bead autofluor – compound fluorescence in toxin protease inhibitor counterscreen; fluorescence intensity (test concentration not listed); compound autofluorescence counterscreen, microsphere flow cytometry; active compounds read high; 360,000 compounds, 3.1% hits;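 active means at least 3 SD above the mean of all compounds, about 16000 in these data; inconclusive means too few beads counted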;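 further: 100 nL of 1 mM stock went into each well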
RN4220 kill – kills Staphylococcus aureus RN4220 | S. aureus RN4220 growth, OD600, 16 h | inhibition, % (concentration not given with the values) | 330,000 compounds, 0.33% hits;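 active means z-score of -3 or lower and OD600 up to 0.18 on both plates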;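 further: plate controls were untreated cells for no effect and reference antibiotic for full effect; stock transfer was 100 nL into about 80 µL; one replicate is shown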
Mtb hypoxia rep – Mtb hypoxia fluorescent reporter inhibition; M. tuberculosis hypoxia-regulated fluorescent reporter, fluorescence; fluorescence inhibition, % (no concentration beside the values); 300,000 compounds, 0.1% hits; AID 1159583;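 active means 35 to 45% if threefold the growth effect, above 45% if 1.5-fold the growth effect; inactive means the rest, general growth blockers included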;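 further: wells of about 50 µL received 100 nL stock; 0% = vehicle wells and 100% = reference inhibitor wells; whole bacteria with a GFP reporter of the hypoxia response; strong numbers were not always called active; many hits fall short of the cut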
ugtP null kill – growth inhibition of S. aureus ugtP deletion strain; S. aureus RN4220 ugtP deletion, OD600 growth, 16 h; some inactives read as strong as hits; growth inhibition, % (no concentration beside the values); 330,000 compounds, 0.54% hits; AID 1259309;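 active means z-score under -3 and OD600 up to 0.15 on both plates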;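 further: plate controls were untreated wells for no effect and antibiotic for full effect; wells of about 80 µL received 100 nL stock; the first replicate is given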
PrP 5UTR inh – inhibition of PrP 5' UTR reporter expression | 340,000 compounds, 0.35% hits | AID 488862 | cell-based PrP 5' UTR mRNA reporter, plate reader | inhibition, % (test concentration not listed);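 active means every replicate at 50% or more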;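 further: 0 = median of the neutral control wells; tested in H4 reporter cells; numbers are from one replicate; inactives centre near -14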
Mtb hypoxia rep growth – also measured in Mtb hypoxia rep; calls as there; growth inhibition, %; measured here: M. tuberculosis growth (absorbance);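 0% = vehicle and 100% = reference antibiotic; read after six days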
* marks the source's active call; other numbers are inactive results; ? = inconclusive; / = no result given.

Sequence of screens – Bead autofluor	Mtb hypoxia rep	RN4220 kill	Mtb hypoxia rep growth	ugtP null kill	BJeLR lethal	PrP 5UTR inh
- COC(=O)c1nn(-c2ccccc2)c(Cl)c1/C=N/OCc1ccc(Cl)cc1Cl
 : 3190	/	/	/	/	14	-20
- Cc1ccc(S(=O)(=O)N2CCOC2CNC(=O)C(=O)NCc2ccncc2)cc1 (configuration not stated)
 : 3435	6	2.0	9	12	0	-5
- CC(Sc1nnc(-c2ccc(OC(F)F)cc2)n1N)C(=O)NCC1CCCO1 (configuration not stated)
 : ?	0	2.9	2	2	0	5
- CCCC(C)(COC(N)=O)COC(=O)NC(C)C (configuration not stated)
 : 4309	8	0.1	-2	-1	3	34
- COC(=O)c1ccc(C2C(C#N)=C(C)NC3=C2C(=O)CC(C)(C)C3)cc1 (configuration not stated)
 : 9622	-82	7.0	-10	-10	1	3
- COc1cc(C2NC(=O)NC(c3ccccc3)=C2C(C)=O)cc([N+](=O)[O-])c1O (configuration not stated)
 : 4169	2	2.9	0	0	5	-18
- CCOC(=O)N1CCN(CC(O)COc2ccc(OC)cc2C(C)(C)C)CC1 (configuration not stated)
 : 2164	-1	1.9	3	-4	-2	-13
- CC(C)CN1Cc2ccccc2Oc2cc(Br)ccc2S1(=O)=O
 : 3720	2	-3.5	4	61	/	-24
- C=CCNC(=O)CSc1nc2sc(C)c(C)c2c(=O)[nH]1
 : 4345	9	-0.6	7	3	2	-32
- COc1ccccc1OCCOCCn1cnc2ccccc2c1=O
 : 19899*	9	0.1	5	9	-6	-7

(more compounds)
Sequence of screens – Bead autofluor	Mtb hypoxia rep	RN4220 kill	Mtb hypoxia rep growth	ugtP null kill	BJeLR lethal	PrP 5UTR inh
- O=[N+]([O-])c1ccc(N2CCCC2)cc1NN=C1CN2CCC1CC2
 : /	15	4.7	1	-4	/	/
- CC1Cc2ccccc2N1C(=O)Cn1c(=O)cc(O)c2ccccc21 (configuration not stated)
 : 24078*	-5	-2.3	0	-11	8	-14
- Cc1ccc2c(c1)c(N=O)c(O)n2Cc1ccc(Cl)cc1
 : 2533	-3	12	4	-22	2	-4
- CSc1ccccc1C(=O)C1CCCN(C(=O)CCN2CCCO2)C1 (configuration not stated)
 : 4568	0	5.7	-1	8	-2	-3
- COc1ccc2[nH]cc(/C=C(/C#N)S(=O)(=O)c3ccccc3)c2c1
 : 4928	3	-0.4	8	1	0	-12
- COc1cc(C=NNC(=O)c2cccc3ccccc23)ccc1OCC(N)=O
 : /	11	3.1	5	11	/	/
- COc1ccc2c(=O)c(C(=O)NCCc3ccc(OC)c(OC)c3)c[nH]c2c1
 : 7027	5	1.2	12	24	-17	-2
- Cc1ccc(C)c(-n2c3nc(=O)n(C)c(=O)c-3cc3ccccc32)c1
 : 5297	-11	0.6	7	-3	-6	-33
- CC(/C=N/NC(=O)CSc1nnc(SCc2ccccc2)s1)=C\c1ccco1
 : 2518	/	/	/	/	-2	-22
- Cc1ccc(Cl)cc1NC(=O)C1CCCN(S(=O)(=O)c2c(C)noc2C)C1 (configuration not stated)
 : 3456	/	-0.1	/	-2	-6	-3

The list continues.
Sequence of screens – Bead autofluor	Mtb hypoxia rep	RN4220 kill	Mtb hypoxia rep growth	ugtP null kill	BJeLR lethal	PrP 5UTR inh
- CCc1ccccc1NC(=O)Nn1cnnc1
 : 5695	0	4.8	-2	12	12	-22
- CCCOc1c(OC)cc(Cl)cc1C1NC(=O)NC(C)=C1C(=O)NCc1ccccc1 (configuration not stated)
 : 10813	0	2.2	8	4	-2	-8
- Nc1ccc(NC(=S)Nc2ccccc2)cc1
 : 4226	13	0.8	4	-4	2	-25
- NC(=O)C1CCCN(CC(=O)N2CCN(c3ccccc3)CC2)C1 (configuration not stated)
 : 3514	-3	-0.7	-1	2	1	-21
- CCN(C[C@H]1N[C@@](C)(C(=O)OC)[C@H]2C(=O)N(C)C(=O)[C@@H]12)C(=O)c1ccccc1
 : 3783	0	-0.7	8	2	/	1
- COc1ccc(C(=O)NCCOc2ccccc2)cc1S(=O)(=O)N1CCOCC1
 : /	9	0.2	0	4	/	1
- Cc1ccc2c(c1)cc1c(=O)n(CC(=O)NCCCc3ccccc3)nc(C)n12
 : 5783	5	1.5	18	5	-7	-24
- CC(=O)Nc1ccc(S(=O)(=O)Nc2c(C)nn(-c3ccccc3)c2C)cc1
 : 8259	-7	4.3	13	-1	2	-17
- Cc1c(C(=O)Nn2cnnc2)oc2ccccc12
 : 5854	/	-0.4	/	-2	5	-9
- Cc1ccccc1NC(=O)C=C1SC(=O)NC1=O
 : /	17	23	17	-4	/	/

(listing goes on)
Sequence of screens – Bead autofluor	Mtb hypoxia rep	RN4220 kill	Mtb hypoxia rep growth	ugtP null kill	BJeLR lethal	PrP 5UTR inh
- O=[N+]([O-])c1ccc(S(=O)(=O)NCCc2ccncc2)cc1
 : 2198	5	22	12	15	-7	-11
- Cc1ccc(-c2nn(CC(=O)NN3CCOCC3)c(=O)c3ccccc23)cc1
 : 5276	-1	3.7	-3	4	14	/
- CC(=O)Cc1nsc(Nc2ccccc2)n1
 : 4167	7	6.9	5	13	-13	-2
- CCN1CC2C3C(=O)N(C)C(=O)C3[C@](C)(C1=O)N2C(=O)c1ccc(Cl)c(Cl)c1 (some centres not stated)
 : /	9	9.9	3	7	/	/
- CCOC(=O)C1=C(COC(=O)c2ccc(Br)c(S(=O)(=O)N3CCOCC3)c2)NC(=O)NC1C (configuration not stated)
 : 2672	2	11	2	10	/	2
- COc1ccc(NC(=O)CNC(=O)c2ccc([N+](=O)[O-])cc2)cc1
 : 4131	-13	2.2	1	6	-8	-42
- COc1ccc(CCNC(=O)COc2ccc(N(C)S(=O)(=O)c3ccc(C)cc3)cc2)cc1
 : 3499	16	1.0	7	6	-3	-10
- Cc1cc(C(=O)N/N=C/c2ccc(N(C)C)cc2)c2ccccc2n1
 : 5031	/	/	/	/	17	-26
- CCOc1ccccc1-c1nc(C(N)=O)c2[nH]c(=O)n(-c3ccccc3)c2n1
 : 2425	3	9.0	0	-9	-4	1
- COc1ccc(OCC(O)CNC2CCCC2)cc1 (configuration not stated)
 : 3599	-11	-0.4	-9	-2	8	-25

(next part)
Sequence of screens – Bead autofluor	Mtb hypoxia rep	RN4220 kill	Mtb hypoxia rep growth	ugtP null kill	BJeLR lethal	PrP 5UTR inh
- CC1CCC(N(C(=O)c2csnn2)C(C(=O)NC(C)(C)C)c2cccnc2)CC1 (configuration not stated)
 : 3535	1	3.5	2	-6	-1	-24
- Cc1cc(C(=O)NCc2ccc(F)cc2)n(-c2ccccc2)n1
 : 4579	13	5.9	12	5	16	-22
- COc1cccc(OC)c1C(=O)Nc1cccnc1
 : 5114	1	-0.4	7	-3	3	-36
- Cc1c(-c2nc(-c3ccncc3)no2)cccc1[N+](=O)[O-]
 : 5553	-4	0.7	-6	5	-1	-19
- CCC(C(=O)NCC1CCCO1)n1nc(C)c2sc3ccccc3c2c1=O (configuration not stated)
 : ?	4	2.4	1	5	3	-9
- CCOc1ccc(CN(C)C(=O)CCl)cc1
 : 4225	/	5.8	/	-6	4	-4
- Cc1cnc(C(=O)N2CCc3c([nH]c4ccccc34)C2c2ccc(F)cc2)cn1 (configuration not stated)
 : 2442	9	1.5	6	-3	1	-27
- COc1ccc(/C=C2\SC(=S)N(CCC(=O)NCCc3ccc(O)cc3)C2=O)cc1
 : 6013	10	7.9	11	-6	-2	-11
- CCS(=O)(=O)N1CCN(c2ccnc3cc(Cl)ccc23)CC1
 : /	6	-2.2	3	-3	-1	-89
- O=C(NCCNS(=O)(=O)c1ccccc1)c1cc(OCC(F)(F)F)ccc1OCC(F)(F)F
 : 3471	15	3.3	1	10	10	-18

The listing continues.
Sequence of screens – Bead autofluor	Mtb hypoxia rep	RN4220 kill	Mtb hypoxia rep growth	ugtP null kill	BJeLR lethal	PrP 5UTR inh
- O=C1CSC(c2cccc(O)c2)N1Cc1ccccc1 (configuration not stated)
 : 5728	14	2.7	0	-2	-20	-16
- CN(C(=O)c1ccc(NC(=O)Cc2ccc(NC(=O)C3CCCN(C(=O)C4CCC4)C3)cc2)cc1)C1CC1 (configuration not stated)
 : 4017	5	3.1	10	-8	/	-26
- COc1cc(-c2nnc(SCc3cc(=O)oc4cc(O)c(O)cc34)o2)cc(OC)c1OC
 : 21137*	7	31	15	-10	19	-12
- O=C(CC1C(=O)NCCN1Cc1ccc(Cl)c(F)c1)NCCc1cccnc1 (configuration not stated)
 : 3555	5	-0.6	-2	-2	1	-85
- COc1ccc(NC(=O)CCN2C(=O)c3ccccc3S2(=O)=O)cc1
 : 7560	-4	4.1	1	7	0	-26
- O=C(CN1CCN(C2CCS(=O)(=O)C2)CC1)N1N=C(c2ccc(Cl)cc2)CC1c1ccco1 (configuration not stated)
 : 6558	7	5.8	-4	1	/	-1
- CC(C)Cc1ccc(/C(=N/O)C(=O)O)s1
 : 5047	/	/	/	/	-9	-17

Some of the entries above in another layout.
mol	Bead autofluor	Mtb hypoxia rep	RN4220 kill	Mtb hypoxia rep growth	ugtP null kill	BJeLR lethal	PrP 5UTR inh
Cc1cc(C(=O)N/N=C/c2ccc(N(C)C)cc2)c2ccccc2n1	5031	/	/	/	/	17	-26
CCOc1ccccc1-c1nc(C(N)=O)c2[nH]c(=O)n(-c3ccccc3)c2n1	2425	3	9.0	0	-9	-4	1
COc1ccc(OCC(O)CNC2CCCC2)cc1 (configuration not stated)	3599	-11	-0.4	-9	-2	8	-25
CC1CCC(N(C(=O)c2csnn2)C(C(=O)NC(C)(C)C)c2cccnc2)CC1 (configuration not stated)	3535	1	3.5	2	-6	-1	-24
Cc1cc(C(=O)NCc2ccc(F)cc2)n(-c2ccccc2)n1	4579	13	5.9	12	5	16	-22
COc1cccc(OC)c1C(=O)Nc1cccnc1	5114	1	-0.4	7	-3	3	-36
Cc1c(-c2nc(-c3ccncc3)no2)cccc1[N+](=O)[O-]	5553	-4	0.7	-6	5	-1	-19
CCC(C(=O)NCC1CCCO1)n1nc(C)c2sc3ccccc3c2c1=O (configuration not stated)	?	4	2.4	1	5	3	-9
CCOc1ccc(CN(C)C(=O)CCl)cc1	4225	/	5.8	/	-6	4	-4
Cc1cnc(C(=O)N2CCc3c([nH]c4ccccc34)C2c2ccc(F)cc2)cn1 (configuration not stated)	2442	9	1.5	6	-3	1	-27
COc1ccc(/C=C2\SC(=S)N(CCC(=O)NCCc3ccc(O)cc3)C2=O)cc1	6013	10	7.9	11	-6	-2	-11
CCS(=O)(=O)N1CCN(c2ccnc3cc(Cl)ccc23)CC1	/	6	-2.2	3	-3	-1	-89
O=C(NCCNS(=O)(=O)c1ccccc1)c1cc(OCC(F)(F)F)ccc1OCC(F)(F)F	3471	15	3.3	1	10	10	-18
O=C1CSC(c2cccc(O)c2)N1Cc1ccccc1 (configuration not stated)	5728	14	2.7	0	-2	-20	-16
CN(C(=O)c1ccc(NC(=O)Cc2ccc(NC(=O)C3CCCN(C(=O)C4CCC4)C3)cc2)cc1)C1CC1 (configuration not stated)	4017	5	3.1	10	-8	/	-26
COc1cc(-c2nnc(SCc3cc(=O)oc4cc(O)c(O)cc34)o2)cc(OC)c1OC	21137*	7	31	15	-10	19	-12
O=C(CC1C(=O)NCCN1Cc1ccc(Cl)c(F)c1)NCCc1cccnc1 (configuration not stated)	3555	5	-0.6	-2	-2	1	-85
